Compound activity deposited in PubChem by several laboratories.
YopH PTP inh: YopH tyrosine phosphatase inhibitors, primary screen, biochemical, fluorescence Ex485/Em525. YopH tyrosine phosphatase [Yersinia enterocolitica]. inhibition, %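 (about 10 µM by stock and volumes)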. actives 0.16% (n = 140,000);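 active = inhibition of 50% or more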;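 also: controls were vehicle for no effect and minimum signal wells for full effect; inactives centre near -20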
Mtb growth: M. tuberculosis H37Rv growth inhibitors, H37Rv strain (AID 1626). actives 0.95% (n = 220,000). one-dose inhibition, % at 10 µM; IC50 in µM for titrated hits. M. tuberculosis H37Rv growth inhibition; higher % means a stronger effect;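 active = confirmed in a dose series; inconclusive = inhibition above 80% but not taken into the dose series; inactive = below 80% or under 30% at every dose of the series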;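 also: bacteria incubated seven days before Alamar blue readout; 0% = bacteria only wells and 100% = bacteria with antibiotic wells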
Mtb bLac sens: beta-lactam sensitization of Mtb H37Rv, H37Rv; M. tuberculosis H37Rv growth with meropenem, percent inhibition; hits of this screen are not shown here; inhibition, % at 25 µM; actives 0.27% (n = 330,000); AID 434955, 2010;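 active = about 74% or more and at least 40 points above the plate without the antibiotic, then above 30% in a dose series; inconclusive = first-round hits that could not be retested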;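 also: growth measured after seven days incubation then overnight dye step; 0% = bacteria only wells and 100% = bacteria with antibiotic; twin plates without the antibiotic show which effects depend on it; some results filed as inactive read as strong as hits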
Arbovirus anti: antivirals against arbovirus infection, primary screen, cell-based, full library, 10K replicate subset; arbovirus infection cell-based antiviral screen; inhibition, % at 10 µM; actives 0.37% (n = 200,000); AID 1251, 2008;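 active = inhibition from about 30%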;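 also: bluetongue infection of BSR cells; cell survival read as ATP light after 72 h; 0% = infected wells without compound and 100% = uninfected wells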
RecA splice inh: Mtb RecA intein splicing inhibitors, primary screen, biochemical, fluorescence, HTS; cell-free RecA intein splicing; Protein RecA (Mycobacterium tuberculosis (strain ATCC 25618 / H37Rv)), P9WHJ3; inhibition, %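 (about 9 µM by stock and volumes)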; actives 0.75% (n = 290,000); in the data active = inhibition above about 30%; inconclusive = no clear call, values can overlap the other calls;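 also: 0% = vehicle wells and 100% = reference inhibitor control wells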
Target sequence (P9WHJ3 whole entry, looked up, canonical isoform): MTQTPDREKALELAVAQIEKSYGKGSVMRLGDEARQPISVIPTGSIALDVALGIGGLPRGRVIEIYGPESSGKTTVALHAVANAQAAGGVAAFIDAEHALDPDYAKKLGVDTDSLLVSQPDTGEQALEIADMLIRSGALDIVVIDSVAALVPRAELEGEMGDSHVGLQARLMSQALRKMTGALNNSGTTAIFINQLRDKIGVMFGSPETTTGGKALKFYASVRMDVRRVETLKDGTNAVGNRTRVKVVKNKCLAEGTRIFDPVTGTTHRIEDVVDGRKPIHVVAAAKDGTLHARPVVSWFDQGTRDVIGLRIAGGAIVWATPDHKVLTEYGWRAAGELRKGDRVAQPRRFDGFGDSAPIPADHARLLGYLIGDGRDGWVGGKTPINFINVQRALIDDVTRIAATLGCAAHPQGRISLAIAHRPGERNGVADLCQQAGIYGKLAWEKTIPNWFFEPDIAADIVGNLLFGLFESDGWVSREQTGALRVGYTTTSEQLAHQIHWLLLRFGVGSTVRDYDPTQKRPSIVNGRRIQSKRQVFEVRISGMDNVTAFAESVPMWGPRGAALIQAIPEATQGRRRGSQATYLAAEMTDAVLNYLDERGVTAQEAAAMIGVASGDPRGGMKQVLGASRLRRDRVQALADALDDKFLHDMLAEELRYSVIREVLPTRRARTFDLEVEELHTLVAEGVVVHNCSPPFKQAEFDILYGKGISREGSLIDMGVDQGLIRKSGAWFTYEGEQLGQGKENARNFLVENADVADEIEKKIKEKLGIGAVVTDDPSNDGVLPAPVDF
Arbovirus anti repeat: further read-out of Arbovirus anti, marked with its call; inhibition, %; measured here: 10K subset replicate screen; many hits read low in the repeat;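 first of two repeat runs on a subset; 0% = infected and 100% = uninfected wells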
An asterisk follows results filed as active; ? = inconclusive; / = not tested or not shown. Not all compounds are listed; count on the stated rates, not on these rows.

SMILES	YopH PTP inh	Mtb growth	Mtb bLac sens	Arbovirus anti	RecA splice inh	others
CCOC(=O)c1ccc(NC(=O)CCc2nc(-c3cccc(C)c3)no2)cc1	31	2.8µM*	99	12	0.5
CCN(CC)C(=O)C(=O)c1cccn1-c1ccccc1C#N	-51	?	-5	3	0.6
COc1ccc(C(C)NC(=O)c2ccc(Cl)cc2)cc1OC (stereo unspecified)	-26	-7%	-1	-4	-0.7
CC(=O)Nc1ccc(C(=O)OCc2ccccc2Cl)cc1	-1	7%	-1	3	2.4
c1ccc2c(NCCc3c[nH]c4ccccc34)c3ccccc3nc2c1	/	/	98	/	2.4
COc1ccc(-c2cn3c(C)c(C(=O)Nc4cccc(NC(C)=O)c4)sc3n2)cc1	-28	1%	-16	-10	-1.8
CN(C)C(=O)[C@H]1C[C@H]1[C@@H](O)[C@H](CO)NC(=O)[C@H](COCc1ccccc1)NC(=O)OC(C)(C)C	/	/	-10	/	-1.4
CC(=O)Nc1ccc(S(=O)(=O)N2CCN=C2SCc2ccc([N+](=O)[O-])cc2)cc1	/	/	?	/	1.6
COc1cccc(CN2CCN(c3nc4nonc4nc3NC3CC3)CC2)c1	/	-6%	-8	5	1.5
O=c1c(C/C=C/c2ccccc2)c(O)ccn1Cc1ccc(Cl)cc1Cl	/	0%	-3	13	-0.9
COCCSc1ccccc1C(=O)NCc1ccco1	-18	5%	-3	1	0.6
C=CCN1C(=O)/C(=C/c2cccs2)C(=O)NC1=S	-23	1%	7	0	-1.0
CCCOc1ccc(N2C(=O)CC(SC(=NCC)Nc3cccc(F)c3)C2=O)cc1 (stereo unspecified)	16	-7%	-13	-7	-0.1
O=C(Oc1ccc(C(=S)N2CCOCC2)cc1Br)c1ccccc1F	-26	1%	3	1	6.1
Cc1cc(C)nc(NS(=O)(=O)c2ccc(NC(=O)c3ccc(S(=O)(=O)N(C)C)cc3)cc2)n1	/	/	-2	/	0.1
O=C(O)CNS(=O)(=O)c1cccc2nsnc12	-5	-9%	8	12	2.4
CC(C)C1N(C(=O)N(C)C)CCN1S(=O)(=O)c1ccccc1 (stereo unspecified)	/	/	-4	/	4.2
Cc1cc(C)n(C(=O)Cn2nc(C(F)F)cc2C)n1	-27	3%	-23	2	0.7
CC(C)CN(C(=O)CC1OC(=O)c2ccccc21)c1c(N)n(Cc2ccccc2)c(=O)[nH]c1=O (stereo unspecified)	/	/	-13	/	-1.5
COc1ccc(/C=C/C(=O)OCC(=O)Nc2ccc(Cl)cc2F)cc1S(=O)(=O)N1CCOCC1	-15	2%	6	-17	-0.2
CCOc1ccc(N(CC(=O)Nc2ccccc2)S(C)(=O)=O)cc1	8	-1%	-15	11	2.2	Arbovirus anti repeat=4
CCOc1ccc(S(=O)(=O)N2CCC(C(=O)NC3CC3)CC2)cc1C	/	/	-7	/	0.3
O=C(c1cccnc1NCc1ccc(F)cc1)N1CCOCC1	-26	-4%	13	3	1.6
CCC(=O)N/N=C/c1ccc(-c2ccc([N+](=O)[O-])cc2)o1	/	?	-3	-3	2.6
O=C(COC(=O)CCCCCN=C1NS(=O)(=O)c2ccccc21)Nc1ccc(Cl)c(Cl)c1	-9	0%	-2	5	0.4

Of the compounds above, these contain a furan ring, fused or not:
SMILES	YopH PTP inh	Mtb growth	Mtb bLac sens	Arbovirus anti	RecA splice inh	others
COCCSc1ccccc1C(=O)NCc1ccco1	-18	5%	-3	1	0.6
CCC(=O)N/N=C/c1ccc(-c2ccc([N+](=O)[O-])cc2)o1	/	?	-3	-3	2.6

Next section:
SMILES	YopH PTP inh	Mtb growth	Mtb bLac sens	Arbovirus anti	RecA splice inh	others
CCOc1ccccc1-c1cc(C(=O)N/N=C/c2ccc(O)c(OC)c2)c2ccccc2n1	-16	1%	2	-4	0.9
CC(=O)c1ccc(-n2nnnc2SCC(=O)N2CCc3ccccc3C2)cc1	-17	5%	/	-1	4.3
COc1ccc(CCNC(=O)C(=O)NCC2CCCN2S(=O)(=O)c2ccccc2)cc1OC (stereo unspecified)	/	/	-9	/	-0.7
C=CCN1C(=O)N(c2ccc(Cl)cc2)C(=O)C1CC(=O)Nc1ccc(F)cc1 (stereo unspecified)	/	5%	-4	7	-2.5
CCOC(=O)Cc1ccc2sc(-c3ccccc3)nc2c1	-17	8%	14	-2	8.8
O=[N+]([O-])c1ccc(S(=O)(=O)N2CCN(c3ccc(N4CCOCC4)nn3)CC2)cc1	/	/	-1	/	-1.7
Cc1cccc(NC(=O)C2(C)CC3c4ccccc4C2c2ccccc23)c1 (stereo unspecified)	-37	2%	-10	9	-0.2
COc1ccc(CCn2c(O)c(C=Nc3cccc(F)c3)c(=O)[nH]c2=O)cc1OC	/	2%	1	/	1.4
Cc1ccc(S(=O)(=O)N2CCC(C(=O)Nc3nnc(C)s3)CC2)cc1	/	/	0	/	-2.5
COc1ccc2oc(C(=O)NCc3ccco3)c(C)c2c1	/	/	1	/	3.8
COc1ccc(NC(=O)CN(C)S(=O)(=O)c2cnc[nH]2)cc1Cl	/	/	4	/	4.7
CCN(CC)S(=O)(=O)c1ccc(OC)c(NC(=O)c2cc([N+](=O)[O-])ccc2Cl)c1	-17	4%	-2	-6	-1.3
O=C(CN1CCN(c2ccccc2F)CC1)Nc1nnc(C(F)(F)F)s1	/	?	96	0	-3.4
COc1ccc(NC(=O)CSc2nncc(=O)n2N)cc1OC	/	/	1	/	-8.5
Cc1ccc(NC(=S)/N=C(\N)Nc2nc(C)c3ccccc3n2)cc1C	-32	51%	91	13	0.2
Cc1cccc(NS(=O)(=O)c2ccc([N+](=O)[O-])cc2)n1	/	/	-12	/	-0.9
Cc1ccc(C)c(OCC(=O)N2CCN(Cc3ccc4c(c3)OCO4)CC2)c1	/	-3%	-2	-13	2.6
CCOc1ccc(CC(C(N)=O)C(N)=O)cc1CN(C)C	-32	2%	-8	5	2.5
CC1CCCCC12NC(=S)N(c1ccccc1)N2 (stereo unspecified)	/	0%	-4	/	-0.5
CN1CCN(c2ccccc2NC(=O)c2ccc(OCc3ccccc3)cc2)CC1	-60	6%	1	-35	/
COc1ccc(N2CCN(C(=O)CCC(=O)N3Cc4ccccc4Oc4ncccc43)CC2)cc1	/	/	-2	/	-2.3
Cc1ccc(S(=O)(=O)Nc2cc(C(=O)N3CCC4(CC3)OCCO4)ccc2N2CCCCC2)cc1	-56	-22%	-1	-6	4.0
COc1ccc(C)cc1NC(=O)C(OC(=O)c1cnccn1)c1ccccc1 (stereo unspecified)	/	/	-1	/	-1.2
COc1ccc(C2NC(=O)NC(C)=C2C(=O)OC2CCC(C)CC2)cc1 (stereo unspecified)	/	/	14	/	2.3
CCc1ccc(NC(=O)Cn2cnc3c(=O)n(C)c(=O)n(C)c32)cc1	/	1%	3	4	14

Brought forward from above: 3 entries, then new ones.
SMILES	YopH PTP inh	Mtb growth	Mtb bLac sens	Arbovirus anti	RecA splice inh	others
COc1ccc(C)cc1NC(=O)C(OC(=O)c1cnccn1)c1ccccc1 (stereo unspecified)	/	/	-1	/	-1.2
COc1ccc(C2NC(=O)NC(C)=C2C(=O)OC2CCC(C)CC2)cc1 (stereo unspecified)	/	/	14	/	2.3
CCc1ccc(NC(=O)Cn2cnc3c(=O)n(C)c(=O)n(C)c32)cc1	/	1%	3	4	14
OCCCNc1nnc(-c2ccccc2)c2ccccc12	/	/	1	/	-0.8
Cc1cnc(C(=O)OCc2ccc(Br)cc2)cn1	/	/	2	/	3.1
O=C(Nc1ccc(Br)cc1)c1ccccc1CC[N+](=O)[O-]	-9	0%	63	-16	-1.9
CCOC(=O)N1CCN(C(=O)CCCn2c(=S)[nH]c3ccc(Br)cc3c2=O)CC1	-19	3%	90	1	5.9
CC(=O)NNC(=O)CN1C(=O)CN=C(c2ccccc2)c2cc(Br)ccc21	/	1%	-7	-7	-0.8
O=C(COC(=O)C1CCN(S(=O)(=O)c2ccc3c(c2)OCCO3)CC1)Nc1cc(C(F)(F)F)ccc1Cl	-7	-7%	2	-1	2.2
C/C(=N\NC(=O)c1nn(C)cc1Br)c1cccc(NC(=O)C2CCCC2)c1	-22	-1%	1	-1	0.4
C#Cc1ccc([C@@H]2C=C(C(=O)NCc3ccccc3)O[C@H](OCCCCO)C2)cc1	/	-14%	-1	/	7.6
CCOC(=O)c1cnc2c(-c3ccccc3OC)c(C)nn2c1C	/	0%	0	-2	0.5
COc1ccc(S(=O)(=O)NCCSC(C)(C)C)cc1	-9	3%	-3	2	0.1
Cc1ccc(-c2noc(CCCC(=O)NC3CCCC3)n2)cc1	/	/	-4	/	1.1
CCc1ccc(-c2nc(CN3CCC(C(=O)NCCN(CC)c4ccccc4)CC3)c(C)o2)cc1	-8	20%	99	-35	2.0
COc1ccc(C)cc1NC(=O)C1CCCN(S(=O)(=O)c2cnc[nH]2)C1 (stereo unspecified)	-5	-18%	-1	3	/
COC(=O)C1=C(C)N(Cc2ccccc2)C(=NCCc2ccccn2)N[C@H]1c1cccc(F)c1	/	/	3	/	4.4
C(=N\Nc1nc2ccccc2[nH]1)/c1cccc2cccnc12	/	56%	83	/	3.7
O=C(O)c1cc(S(=O)(=O)NCc2ccco2)c(Cl)cc1Cl	-55	-4%	-2	2	-1.0
CC(C)n1c(SCC(=O)c2ccc3c(c2)OCCO3)nc2c1c(=O)n(C)c(=O)n2C	/	3%	3	/	-2.1
CCCOc1ccc(-c2c(C(=O)N/N=C/c3ccncc3)nnn2-c2nonc2N)cc1	/	/	-8	/	0.5
O=S(=O)(c1cccc2nsnc12)N1CCN(C/C=C/c2ccccc2)CC1	-14	3%	-4	20	0.6
COCC1CCCN(Cc2cn(Cc3ccccc3)nc2-c2cc3ccccc3o2)C1 (stereo unspecified)	/	15%	91	-11	-0.4
Cc1ccc(C(=O)Nc2cccc3ccccc23)o1	/	/	-4	/	-1.6
CC(C)(C)c1ccc(C(=O)NC(=S)N2CCCCCC2)cc1	/	/	82	/	7.9
OCCN1CCN(CC#CCC(c2ccccc2)c2ccccc2)CC1	/	4%	-5	/	10
COc1ccccc1NC(=O)c1ccc(S(=O)(=O)N2CCOCC2)cc1	-60	-6%	7	1	-2.0
Cc1c(C(=O)OCC(=O)N2CC(=O)Nc3ccccc32)oc2ccccc12	-13	-2%	4	-6	-1.1

The listing continues:
SMILES	YopH PTP inh	Mtb growth	Mtb bLac sens	Arbovirus anti	RecA splice inh	others
CCn1c(COc2cc(C)ccc2C(C)C)nnc1SCC(=O)Nc1nccs1	/	8%	6	3	1.3
CCOc1ccc(NC(=O)CN(C)C(=O)CCCOc2ccc(Cl)c(C)c2)cc1OCC	/	/	1	/	-3.7
COc1cc([N+](=O)[O-])cc(/C=N/NC(=O)CSc2ccccn2)c1O	/	-3%	59	/	/
CN(CC(=O)Nc1ccccc1N1CCCC1)S(=O)(=O)c1ccc(F)cc1	/	/	2	/	-3.5
CN(C)c1ccc(/C=C2/SC(=O)N(CCN=C3NS(=O)(=O)c4ccccc43)C2=O)cc1	-45	2%	6	-23	-2.8
O=S(=O)(c1ccccc1)N1CCN(C(=S)Nc2ccc(Br)cc2)CC1	/	/	-4	/	1.7
CCN(CC)S(=O)(=O)c1ccc2nnn(O)c2c1	/	-3%	-9	5	1.8
COc1ccc(-n2c(=S)[nH]c3cc(C(=O)NCc4cccnc4)ccc3c2=O)c(OC)c1	/	/	2	/	0.6
Cc1ccc(NC(=O)c2oc(=O)c3ccccc3c2-c2ccccc2)c(C)c1	-9	1%	-4	-5	-3.2
CN(C)c1ccc(NC(=S)NC(=O)/C=C/c2ccc(Cl)cc2)cc1	-36	6%	-12	-6	-4.7
O=C(N/C(=C/c1cccc([N+](=O)[O-])c1)C(=O)N1CCCCCC1)c1ccco1	/	/	1	/	0.5

Molecules from the list above with a COOH group:
SMILES	YopH PTP inh	Mtb growth	Mtb bLac sens	Arbovirus anti	RecA splice inh	others
O=C(O)CNS(=O)(=O)c1cccc2nsnc12	-5	-9%	8	12	2.4
O=C(O)c1cc(S(=O)(=O)NCc2ccco2)c(Cl)cc1Cl	-55	-4%	-2	2	-1.0
